Sa ugtP lethal: growth inhibition of ugtP-null S. aureus, primary screen, RN4220 ugtP deletion, OD600; 16 h; some inactives read as strong as hits; growth inhibition, % (no concentration beside the values); 0.54% of 330,000 active; AID 1259309, 2017;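 active = z-score under -3 and OD600 up to 0.15 on both plates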;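 also: plate controls were untreated wells for no effect and antibiotic for full effect; wells of about 80 µL received 100 nL stock; the first replicate is given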
Autofluor counter: counter-screen for toxin protease inhibitors: compound fluorescence | compound autofluorescence counterscreen, microsphere flow cytometry; stronger effect = higher value | fluorescence intensity (no concentration beside the values) | 3.1% of 360,000 active;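 active = at least 3 SD above the mean of all compounds, about 16000 in these data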;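 also: 100 nL of 1 mM stock went into each well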
Sa RN4220 lethal: growth inhibition of S. aureus RN4220, primary screen, OD600; 0.33% of 330,000 active; inhibition, % (test concentration not listed); 16 h;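 active = z-score of -3 or lower and OD600 up to 0.18 on both plates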;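 also: plate controls were untreated cells for no effect and reference antibiotic for full effect; stock transfer was 100 nL into about 80 µL; one replicate is shown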
Mtb hypoxia rep: PubChem AID 1159583 | M. tuberculosis hypoxia-regulated fluorescent reporter, fluorescence | fluorescence inhibition, % (test concentration not listed) | 0.1% of 300,000 active;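 active = 35 to 45% if threefold the growth effect, above 45% if 1.5-fold the growth effect; inactive = the rest, general growth blockers included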;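 also: wells of about 50 µL received 100 nL stock; 0% = vehicle wells and 100% = reference inhibitor wells; whole bacteria with a GFP reporter of the hypoxia response; strong numbers were not always called active; many hits fall short of the cut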
BJeLR viability: MLPCN primary cell-based screen for lethality selective to Ras in HRASV12 cells; BJeLR (HRASV12) viability, CellTiter-Glo ATP luminescence, 48 h; reference of the scale not given here; inhibition, % (no concentration beside the values); 0.17% of 300,000 active;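 active = replicate mean above 50%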;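 also: 50 nL library stock added to about 25 µL; numbers are from one replicate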
PrP UTR inh: inhibition of PrP 5' UTR reporter expression; inhibition, % (no concentration beside the values); AID 488862, 2010; 0.35% of 340,000 active; cell-based PrP 5' UTR mRNA reporter, plate reader;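 active = every replicate at 50% or more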;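 also: 0 = median of the neutral control wells; tested in H4 reporter cells; numbers are from one replicate; inactives centre near -14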
Mtb hypoxia rep growth: second read-out of Mtb hypoxia rep, no call of its own (marks repeat the call); growth inhibition, %; measured here: M. tuberculosis growth (absorbance);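 0% = vehicle and 100% = reference antibiotic; read after six days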
The depositor's hits bear a star; x = no result given.

SMILES	Sa ugtP lethal	Autofluor counter	Sa RN4220 lethal	Mtb hypoxia rep	Mtb hypoxia rep growth	BJeLR viability	PrP UTR inh
O=C(c1ccco1)N1CCN(c2cc(=O)n(C3CCCCC3)c(=O)[nH]2)CC1	10	2990	4.5	x	x	3	-18
O=C(c1cccc(S(=O)(=O)N2CCCCC2)c1)N1CCCCC1	0	5752	1.5	-3	7	10	-23
O=C(NCC1CC1)Nc1ccccc1	16	3723	3.5	-9	-12	2	x
CCN(CC)c1ccc(/C=N/n2c(-c3ccccc3Br)n[nH]c2=S)cc1	x	3909	x	x	x	10	-20
NC(CS(=O)(=O)c1ccc(F)cc1)=NO	6	x	2.9	4	2	x	x
C=CCOc1cccc(C2C(C(=O)c3ccco3)=C(O)C(=O)N2CCN2CCOCC2)c1 (configuration not stated)	4	4298	6.1	x	x	4	-19
Cc1onc(-c2ccccc2Cl)c1C(=O)NCCn1ccc2ccccc21	7	14939	2.9	x	x	-6	-18
CCNC(=O)c1sc2cc(C)ccc2c1Cl	-13	2574	11	11	-4	-2	-25
COC(=O)c1cn(NC(=O)/C=C/c2ccc(OC)c(OC)c2)c(=O)c2ccccc12	x	8818	x	x	x	-4	-5
C#CCOCCOCCOCCNc1nc(N2CCN(C(=O)[C@H](C)n3cc(CCCN=C(N)N)nn3)CC2)nc(N2CCN(C(=O)[C@H](C)n3cc(CCCN=C(N)N)nn3)CC2)n1	x	3264	x	x	x	5	6
Cc1noc(C)c1NC(=O)Nc1cccc2c1OC(CN(C)C(=O)Nc1ccccc1)C(C)CN(C(C)CO)C2=O (configuration not stated)	-7	x	1.0	7	9	x	x
CC1(C)Cc2c(C#N)c(N3CCN(C(=O)c4ccccc4Cl)CC3)nc(-c3ccco3)c2CS1	8	2852	-1.0	x	x	1	-10
COc1ccc(C(C)NC(=O)C2CCCC2)cc1 (configuration not stated)	8	4232	4.2	x	x	4	-21
CC(C)c1nc2sc3c(=O)[nH]c(=S)[nH]c3c2c2c1CCC2	31	x	36	-1	-3	-5	x
CC(=O)c1cc2c(cc1NC(=O)Cc1c(C)noc1C)OCO2	-5	3688	2.3	8	4	x	-16
O=c1oc(C2(O)CCCCC2)cc2ccc(-c3ccc4[nH]ccc4c3)cc12	-14	2964	7.2	9	10	x	29
Cc1ccc(CNC(=O)C2CCCN2C(=O)Nc2ccccc2)cc1 (configuration not stated)	-1	3210	1.7	20	1	2	11
O=C(CSc1nnc(NC(=O)c2ccccc2[N+](=O)[O-])s1)NC1CCCC1	x	14499	x	x	x	-3	8
O=C(O)c1cccc2c1C(=O)c1ccc(-c3ccc(F)cc3OCc3ccccc3)cc1S2(=O)=O	-2	2943	7.4	-3	4	x	1
COc1ccc(N(C(=O)Cc2cccs2)C(C(=O)NC2CCCCC2)c2cccn2C)cc1 (configuration not stated)	0	3427	-1.7	x	x	1	-18
CCOC(=O)C1CCN(C(=O)COc2ccc(N(C)S(=O)(=O)c3ccc(C)cc3)cc2)CC1	47	3769	7.1	5	14	-8	-1
Cc1cccc(-c2ocnc2C(=O)Nc2ccccc2NC(=O)c2ccccn2)c1	-7	4368	4.0	-2	-4	-9	-7
Nc1cc(=O)[nH]c(=S)n1-c1cccc(C(F)(F)F)c1	4	16135*	5.0	4	2	3	4
CCCCC(=O)NN=C(C)CC(=O)Nc1ccccc1Br	1	x	1.0	12	3	x	x
CC(C)(C)OC(=O)C[C@H]1C/C=C\C[C@H](CC(=O)N[C@H](CO)Cc2ccccc2)C(=O)N2CCC[C@H]2COC1=O	4	2952	6.5	-7	1	x	-4
CCN(c1ccccc1)S(=O)(=O)c1ccc(C(=O)NCC(c2ccccc2OC)N2CCCC2)cc1 (configuration not stated)	6	6589	2.6	12	7	x	-8
O=C1c2ccccc2C(=O)N1n1c(=O)[nH]c2ccccc2c1=O	0	10868	1.0	4	5	-9	-18
O=C(CN1CCN(S(=O)(=O)c2ccc(Cl)cc2)CC1)Nc1ccc(F)cc1F	3	2723	2.1	x	x	1	-30
Cc1ccc(-c2nnc(CCC(=O)N(C)Cc3nccs3)o2)s1	5	5279	2.8	14	11	2	-40
COc1ccccc1NC(=O)c1cc2c(s1)-c1ccccc1S(=O)(=O)C2	7	4325	6.0	-10	2	5	-42
Cc1ccc(NC(=O)CSc2ncn[nH]2)cc1S(=O)(=O)N1CCOCC1	-64	4024	5.7	7	-2	5	-18
COCc1[nH]nc2c1C(c1ccnc3ccccc13)C(C#N)=C(N)O2 (configuration not stated)	5	16149*	4.0	3	1	-3	-1
Cn1c(SCc2ccccc2F)nc2cccnc21	4	8863	3.6	5	16	-1	-53
Cc1ccc(NS(=O)(=O)c2ccc3[nH]c(=O)c(=O)[nH]c3c2)cc1Cl	-2	5204	0.2	-10	2	4	-11
C=CCn1c(C)cc(C(=O)COc2ccc(S(=O)(=O)N3CCCC3)cc2[N+](=O)[O-])c1C	19	1969	5.0	9	14	-6	-32
COc1cc(/C=N/Nc2ccc([N+](=O)[O-])cc2S(=O)(=O)N2CCOCC2)cc(OC)c1OC	x	8412	x	x	x	3	-3
Cc1ccc(S(=O)(=O)NCCC(=O)NNc2c(F)c(F)cc(F)c2F)cc1	6	5133	4.5	5	3	x	-27
Cc1[nH]n(-c2ccccc2)c(=O)c1C=NO	10	x	7.2	16	10	x	x

15 consecutive entries from above, for reference:
SMILES	Sa ugtP lethal	Autofluor counter	Sa RN4220 lethal	Mtb hypoxia rep	Mtb hypoxia rep growth	BJeLR viability	PrP UTR inh
Cc1cccc(-c2ocnc2C(=O)Nc2ccccc2NC(=O)c2ccccn2)c1	-7	4368	4.0	-2	-4	-9	-7
Nc1cc(=O)[nH]c(=S)n1-c1cccc(C(F)(F)F)c1	4	16135*	5.0	4	2	3	4
CCCCC(=O)NN=C(C)CC(=O)Nc1ccccc1Br	1	x	1.0	12	3	x	x
CC(C)(C)OC(=O)C[C@H]1C/C=C\C[C@H](CC(=O)N[C@H](CO)Cc2ccccc2)C(=O)N2CCC[C@H]2COC1=O	4	2952	6.5	-7	1	x	-4
CCN(c1ccccc1)S(=O)(=O)c1ccc(C(=O)NCC(c2ccccc2OC)N2CCCC2)cc1 (configuration not stated)	6	6589	2.6	12	7	x	-8
O=C1c2ccccc2C(=O)N1n1c(=O)[nH]c2ccccc2c1=O	0	10868	1.0	4	5	-9	-18
O=C(CN1CCN(S(=O)(=O)c2ccc(Cl)cc2)CC1)Nc1ccc(F)cc1F	3	2723	2.1	x	x	1	-30
Cc1ccc(-c2nnc(CCC(=O)N(C)Cc3nccs3)o2)s1	5	5279	2.8	14	11	2	-40
COc1ccccc1NC(=O)c1cc2c(s1)-c1ccccc1S(=O)(=O)C2	7	4325	6.0	-10	2	5	-42
Cc1ccc(NC(=O)CSc2ncn[nH]2)cc1S(=O)(=O)N1CCOCC1	-64	4024	5.7	7	-2	5	-18
COCc1[nH]nc2c1C(c1ccnc3ccccc13)C(C#N)=C(N)O2 (configuration not stated)	5	16149*	4.0	3	1	-3	-1
Cn1c(SCc2ccccc2F)nc2cccnc21	4	8863	3.6	5	16	-1	-53
Cc1ccc(NS(=O)(=O)c2ccc3[nH]c(=O)c(=O)[nH]c3c2)cc1Cl	-2	5204	0.2	-10	2	4	-11
C=CCn1c(C)cc(C(=O)COc2ccc(S(=O)(=O)N3CCCC3)cc2[N+](=O)[O-])c1C	19	1969	5.0	9	14	-6	-32
COc1cc(/C=N/Nc2ccc([N+](=O)[O-])cc2S(=O)(=O)N2CCOCC2)cc(OC)c1OC	x	8412	x	x	x	3	-3

Compound activity from PubChem.
